# RGS16-Gao – modulates binding between human RGS16 and Galphao; bead-based flow cytometry RGS16-Galphao binding, fluorescence; actives lie on both sides; binding response (% of control), % at 10 µM; 220,000 compounds, 0.38% hits; AID 1441; O15492+P09471;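 active = below 25% or above 175%, edge rows of some plates excepted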;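 also: Galphao activated by GDP with aluminum fluoride before binding; 100% = wells without compound and 0% = beads without RGS; some results beyond the cut were filed as inactive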
# HSV replic up – HSV replication enhancement; HSV replication augmentation in cells, fold increase; 220,000 compounds, 0.005% hits; maximum fold increase; AID 1956;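 active = peak rise of 1.5-fold or more in the series; tested in PC3 cells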;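 also: first round at 10 µM; read as green reporter fluorescence; hits show the peak of a series up to 25 µM; 1 = signal of infected wells without compound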
# PKD1 inh – PKD1 (human) kinase inhibition. Q15139. PKD1 kinase fluorescence polarization assay. inhibition, %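 (about 10 µM by stock and volumes)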. 200,000 compounds, 0.056% hits. AID 797;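 active = inhibition of 50% or more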;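 also: controls were vehicle for no effect and a reference inhibitor for full effect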
# Target sequence (Q15139 whole entry, looked up): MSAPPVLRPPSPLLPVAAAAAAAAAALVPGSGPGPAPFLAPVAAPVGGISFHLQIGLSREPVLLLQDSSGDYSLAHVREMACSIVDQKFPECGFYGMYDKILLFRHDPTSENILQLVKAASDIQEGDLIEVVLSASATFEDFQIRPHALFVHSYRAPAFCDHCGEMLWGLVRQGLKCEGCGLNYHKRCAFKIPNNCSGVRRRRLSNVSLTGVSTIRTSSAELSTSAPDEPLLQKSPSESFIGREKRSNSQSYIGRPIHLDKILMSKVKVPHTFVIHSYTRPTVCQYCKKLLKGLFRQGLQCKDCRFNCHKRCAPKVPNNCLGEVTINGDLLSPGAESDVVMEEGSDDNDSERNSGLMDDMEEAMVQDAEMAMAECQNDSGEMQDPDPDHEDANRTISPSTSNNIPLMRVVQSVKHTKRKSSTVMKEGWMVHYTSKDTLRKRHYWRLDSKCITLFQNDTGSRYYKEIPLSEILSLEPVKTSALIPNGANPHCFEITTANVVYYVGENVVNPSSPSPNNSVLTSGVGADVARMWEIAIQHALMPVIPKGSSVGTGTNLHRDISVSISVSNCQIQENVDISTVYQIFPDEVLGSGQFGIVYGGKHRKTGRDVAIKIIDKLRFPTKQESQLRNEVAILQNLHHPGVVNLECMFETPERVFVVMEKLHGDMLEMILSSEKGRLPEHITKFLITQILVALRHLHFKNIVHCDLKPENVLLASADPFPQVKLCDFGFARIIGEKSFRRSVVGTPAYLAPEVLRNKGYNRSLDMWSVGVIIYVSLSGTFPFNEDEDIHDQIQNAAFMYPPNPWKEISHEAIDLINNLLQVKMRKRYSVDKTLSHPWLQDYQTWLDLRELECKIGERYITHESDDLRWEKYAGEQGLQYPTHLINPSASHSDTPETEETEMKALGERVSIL
# Insulin prom inh – TRM-6 insulin promoter activity inhibition | TRM-6 cells (human fetal islet line), insulin promoter-eGFP reporter, imaging; reporter expression induced with tamoxifen | inhibition, % at 2 µM | 130,000 compounds, 0.9% hits | AID 1273;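 active = inhibition above the mean plus 3 SD, with well images judged a real hit on visual review, cut at about 60% in these data, passing the limit was not always enough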
# GALR2 agonist – GALR2 (human) receptor agonism; 140,000 compounds, 0.48% hits; GALR2-expressing cells, agonist activation read-out; activation, %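 (tested at 5 µM)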;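 active = above mean plus 3 SD of all compounds, about 5% in these data, not always enough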;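 also: 0% = vehicle buffer wells and 100% = reference agonist at full effect; tested in CHO reporter cells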
# Insulin prom inh cell count – second read-out of Insulin prom inh, no call of its own (marks repeat the call); normalized cell count, %; measured here: cell count, toxicity; reference of the scale not given here;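 cells exposed to compound for 48 h; stained nuclei by imaging scaled within each plate; lower means fewer cells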
# HSV replic up primary fold – second read-out of HSV replic up, no call of its own (marks repeat the call); fold increase; compound at 10 µM; measured here: primary screen fold increase 10 uM; tested in PC3 cells;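 GFP signal in the first replicate; 1 = infected wells without compound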
# Numbers without * were called inactive; i = inactive; nt = no result given. Compounds were not picked by outcome; 1.3% or so of the library scored in one or more.
cpd	SMILES	RGS16-Gao	HSV replic up	HSV replic up primary fold	PKD1 inh	Insulin prom inh	Insulin prom inh cell count	GALR2 agonist
1	Cc1cc(NC(=O)COC(=O)C2CCN(S(=O)(=O)c3cccc(Cl)c3Cl)CC2)no1	102	i	0.97	8	-37	110	-1.3
2	Cc1ccc(NC(=O)C2(NC(=O)c3ccccn3)CCCCC2)cc1Br	91	i	1.1	-8	-69	68	0.6
3	COc1ccc(N=C2NC(=O)/C(=C/c3ccco3)S2)cc1	107	i	1.2	nt	nt	nt	nt
4	CCOc1ccc(NCC(=O)Nc2ccc(C)cc2C)cc1	90	i	0.82	-1	-151	147	-1.0
5	CCOC(=O)c1cnc2ccccc2c1NCCc1ccc(OC)c(OC)c1	108	i	0.95	4	-3	76	0.0
6	NC(=O)c1ccc(N2CCCCC2)c(N2C(=O)CCC2=O)c1	102	i	0.86	13	10	100	-1.0
7	COc1cc(-c2nc3cnccn3c2Nc2ccccc2)ccc1O	97	i	0.79	-22	nt	nt	1.4
8	CC1=C(C)/C(=N\OC(=O)/C=C/c2ccccc2)C=CC1=O	101	i	1	2	3	85	-1.7
9	Cc1sc(NC(=O)CSc2nnc(COc3ccccc3)n2C)c(C#N)c1C	103	i	0.71	-3	-117	146	-1.8
10	COCCN(C(=S)Nc1ccc(OC)cc1)C(C)c1cccs1 (configuration not stated)	101	i	0.89	-9	-30	109	0.1
11	COC(=O)c1ccc(NC(=O)c2ccccc2N(C)S(=O)(=O)c2ccccc2)cc1	91	nt	nt	-9	-19	99	-3.0
12	O=C(NCC1CCCO1)C(c1cccnc1)N(C(=O)Cc1cccs1)c1cccnc1 (configuration not stated)	105	i	0.88	2	nt	nt	-3.1
13	O=C(Nc1ccc(N2C(=O)CCC2=O)cc1Cl)c1cccs1	102	i	0.98	-2	nt	nt	nt
14	O=C(c1ccc(COc2ccc(Br)cc2)o1)N1N=C(C(F)F)CC1(O)C(F)F (configuration not stated)	104	i	0.86	-15	3	86	-0.1
15	COc1ccc(C(NC(C)=O)c2cc(Cl)c3cccnc3c2O)cc1OC (configuration not stated)	93	i	0.83	0	-38	117	nt
16	COc1ccc(C(=O)Nc2ccc(F)cc2F)cc1	112	i	0.98	-6	71	111	-2.4
17	O=C(COc1ccc(Cl)cc1Cl)NNC(=S)Nc1ccc(F)cc1	100	i	1.2	-3	nt	nt	-2.0
18	CCOC(=O)C1(Cc2cccc(OC)c2)CCN(Cc2cccc(OCC)c2O)CC1	147	i	0.88	0	nt	nt	nt
19	COc1cc(NC(=O)C2CCCN(S(=O)(=O)c3cccc4nsnc34)C2)cc(OC)c1 (configuration not stated)	111	nt	nt	-6	nt	nt	-0.9
20	NC(=S)NNc1c(F)c(F)c(F)c(F)c1F	97	i	0.94	1	nt	nt	nt
21	CCc1nnc(NS(=O)(=O)c2ccc(NC(=S)NC(=O)/C=C/c3cccs3)cc2)s1	174	i	1.1	1	nt	nt	nt
22	C=CCNCCCCOc1cccc(Br)c1	102	i	0.85	-5	nt	nt	nt
23	OC(c1ccc(Cl)cc1)c1nnc(-c2ccccc2)o1 (configuration not stated)	101	i	0.97	2	36	208	-3.2
24	O=C(NCc1ccncc1)Nc1cc(Cl)ccc1Cl	96	i	1.1	8	nt	nt	nt
25	COc1ccc(C(=O)NC(=S)NNC(=O)CCc2ccccc2)cc1	98	i	0.81	-5	4	92	-0.8
26	O=C(O)CNC(=O)CCn1nnc2ccccc2c1=O	100	i	1.1	nt	nt	nt	nt
27	CCCc1noc2c1/C(=N\O)CC(c1ccccc1)C2 (configuration not stated)	86	i	0.89	-1	44	101	-0.7
28	COc1ccc(-c2c(C#N)c(N)nc3c2CCc2ccccc2-3)cc1OC	94	i	0.62	3	-87	78	4.2
29	CC1=CCC2C(=O)N(c3ccc(OC(=O)c4ccco4)cc3)C(=O)C2C1 (configuration not stated)	111	i	0.94	3	nt	nt	nt
30	CCN(CC)S(=O)(=O)c1ccc(OCC(=O)NC2CCS(=O)(=O)C2)c([N+](=O)[O-])c1 (configuration not stated)	99	i	0.97	-3	nt	nt	nt
31	O=C(Cc1ccc(Cl)cc1Cl)Nc1ccc(OC(F)F)c(Cl)c1	110	i	0.8	-11	24	150	1.3
32	Cc1nnc(NC(=O)CSc2ccc(-c3ccccn3)nn2)s1	101	i	0.97	1	nt	nt	nt
33	Cc1ccc2cc(C#N)c(NCCCNC(=O)C3CCCO3)nc2c1 (configuration not stated)	116	i	0.92	-1	-9	149	0.3
34	COc1ccc(S(=O)(=O)N2CCCN(S(=O)(=O)c3ccc(OC)c(C)c3)CC2)cc1C	101	i	1	2	-125	71	-1.1
35	O=Cc1cccn1Cc1ccc(Cl)cc1Cl	96	i	0.94	8	7	58	-0.6
36	CCCCOC(=O)c1ccc(NC(=O)c2cc(Cl)ccc2OC)cc1	100	i	0.97	-6	35	122	-1.5
37	CN(C)/C=C/C(=O)c1ccccc1	97	i	0.91	nt	nt	nt	nt
38	Nc1c(CO)nnn1-c1ccccc1	107	i	0.93	-3	-30	110	0.7
39	Cc1ccc(NC(=O)CN(C)C(=O)c2ccc(C(F)(F)F)cc2)cc1	93	nt	nt	-12	38	127	-1.0
40	Oc1ccc(Br)cc1CN1CCCCCCC1	102	i	0.92	-6	-27	154	-0.1
41	CCOc1cc(NC(=S)NCC(C)C)c(OCC)cc1NC(=O)c1ccco1	105	i	0.7	-9	7	108	0.0
42	Cc1ccnc(NS(=O)(=O)c2ccc(NC(=O)C3CCCO3)cc2)n1 (configuration not stated)	102	i	0.87	-8	nt	nt	-0.2
43	CCc1nc(NCC2CCCO2)c(C#N)c2c1COC(C)(C)C2 (configuration not stated)	103	i	0.89	-7	36	107	-1.8
44	CCCn1c2c(c(O)c(C(=O)Nc3nc(C)cs3)c1=O)CCCC2	100	i	1.3	-7	nt	nt	-2.9
45	C1CCc2c(nnc3c2-c2nonc2CC3)C1	99	i	0.75	-7	nt	nt	-1.1
46	COC(=O)/C(=N\Nc1ccccc1)Sc1nnc(-c2ccc(OC)cc2)n1C	98	i	0.91	5	-54	1	-0.8
47	N#CCc1c(C#N)c(N)nc(N2CCN(Cc3ccc4c(c3)OCO4)CC2)c1C#N	100	nt	nt	6	38	52	-3.0
48	Cc1csc(NC(=O)CSc2nnc(NC(=O)COc3ccccc3)s2)n1	75	i	1.1	-7	36	101	-0.6
49	O=C(NCc1cccnc1)C1CC(=O)N(CCc2ccccc2)C1 (configuration not stated)	104	i	0.95	-9	nt	nt	-1.8
50	O=C(N/N=C\c1ccccn1)c1ccccc1O	117	i	1.1	-10	29	71	nt

# The listing continues.
cpd	SMILES	RGS16-Gao	HSV replic up	HSV replic up primary fold	PKD1 inh	Insulin prom inh	Insulin prom inh cell count	GALR2 agonist
51	O=C1CCCN1CCCNC(=S)Nc1cccc2ccccc12	102	i	0.95	10	nt	nt	nt
52	CCCCCc1cc(O)c2c(C)cc(=O)oc2c1	104	i	0.94	-4	nt	nt	0.4
53	Cc1ccc(S(=O)(=O)NCCc2cccs2)cc1	104	i	1	nt	nt	nt	nt
54	CS(=O)(=O)N1CCC(C(=O)N2CCN(c3cccc(Cl)c3)CC2)CC1	101	i	0.99	-8	47	82	nt
55	Cc1ccccc1-n1c(-c2ccc(Cl)cc2)cnc1SCC(=O)NC1CCS(=O)(=O)C1 (configuration not stated)	104	i	0.95	-3	17	114	-0.9
56	Cc1nc(-c2ccncc2)nc(NCCNc2ccc(C(F)(F)F)cn2)c1Cl	99	i	0.99	nt	nt	nt	nt
57	Cc1nnc(NC(=O)CSc2ccc(-c3cccnc3)nn2)s1	104	i	0.93	-4	17	121	nt
58	O=C(Nc1cccc(S(=O)(=O)N2CCCCC2)c1)c1ccc2ccccc2n1	96	i	0.89	-14	0	199	-0.9
59	Cc1cc(-c2ccccc2)nc2c(Br)c(=O)[nH]n12	104	i	0.93	-4	nt	nt	nt
60	Fc1cccc(-n2c(-c3cccs3)nc3nc4ccccc4nc32)c1	101	i	0.85	nt	nt	nt	nt

# Whole records as entered above. Order of screens: RGS16-Gao | HSV replic up | HSV replic up primary fold | PKD1 inh | Insulin prom inh | Insulin prom inh cell count | GALR2 agonist
# `O=C1CCCN1CCCNC(=S)Nc1cccc2ccccc12` in the list: 102 | i | 0.95 | 10 | nt | nt | nt
# `Cc1ccccc1-n1c(-c2ccc(Cl)cc2)cnc1SCC(=O)NC1CCS(=O)(=O)C1` (configuration not stated) in the list: 104 | i | 0.95 | -3 | 17 | 114 | -0.9
# `CS(=O)(=O)N1CCC(C(=O)N2CCN(c3cccc(Cl)c3)CC2)CC1` in the list: 101 | i | 0.99 | -8 | 47 | 82 | nt
# `Cc1ccc(S(=O)(=O)NCCc2cccs2)cc1` in the list: 104 | i | 1 | nt | nt | nt | nt
# `CCCCCc1cc(O)c2c(C)cc(=O)oc2c1` in the list: 104 | i | 0.94 | -4 | nt | nt | 0.4

# (cont.)
cpd	SMILES	RGS16-Gao	HSV replic up	HSV replic up primary fold	PKD1 inh	Insulin prom inh	Insulin prom inh cell count	GALR2 agonist
61	CCOc1ccc(NC(=O)N(CCN(C)C)C(C)c2ccncc2)cc1 (configuration not stated)	106	i	0.84	11	nt	nt	-3.3
62	CS(=O)(=O)c1ccc2nc(NC(NC(=O)c3ccco3)(C(F)(F)F)C(F)(F)F)sc2c1	102	nt	nt	-3	0	115	-1.4
63	COc1ccccc1OCCC(=O)OCC(=O)NC(=O)NC(C)(C)C	104	i	0.91	7	25	148	-1.4
64	O=C(NCc1ccc(F)cc1)c1cccc2c1C(=O)N(Cc1cccnc1)C2	103	i	0.91	-3	-100	156	nt
65	Cc1c(NC(=S)N/N=C/C=C/c2ccc([N+](=O)[O-])cc2)c(=O)n(-c2ccccc2)n1C	110	i	0.91	1	13	65	-1.9
66	COc1ccc(-c2nnnn2C)cc1S(=O)(=O)NCCc1ccccc1	120	i	0.91	0	21	108	-1.7
67	CCCOc1nc(N)c(C#N)c(-c2ccccc2F)c1C#N	100	i	0.92	-3	-39	133	-1.0
68	Cc1[nH]c2ccccc2c1CCO	102	i	1.1	-8	-21	58	2.6
69	CCCCCN(C(=O)NC(=O)Nc1nncs1)S(C)(=O)=O	99	i	0.84	6	nt	nt	0.2
70	ClCc1ncc(-c2ccc(Cl)cc2)o1	104	i	1.1	-3	-14	94	nt
71	CCN(CC)CCNC(=O)c1ccc2c(=O)n(C3CCCC3)c(=S)[nH]c2c1	109	i	0.84	-8	-13	105	-0.3
72	Cc1cccc(-c2noc(-c3ccc(Cl)cc3[N+](=O)[O-])n2)c1	127	i	1	-5	7	78	-0.3
73	COCCOC(=O)C1=C(C)NC(C)=C(C(=O)OCCOC)C1/C=C/c1ccccc1OC	100	i	1.2	nt	nt	nt	nt
74	COc1ccc(C)cc1NC(=O)C(OC(=O)CNC(=O)c1ccc(Oc2ccccc2)cc1)c1ccccc1 (configuration not stated)	102	i	1.1	-4	-3	80	-0.5
75	CCCC(C)C(=O)Nc1nnc(C)s1 (configuration not stated)	102	i	0.83	-15	nt	nt	-1.1
76	COc1ccc(-c2cc(C(=O)Nc3ccccc3)on2)cc1	85	i	1.2	0	nt	nt	nt
77	COc1ccc(-c2csc(NCc3ccco3)n2)cc1	128	i	1	-5	29	101	-0.5
78	CCN(CC)CCNC(=O)C1CCN(S(=O)(=O)N2CCCCC2)CC1	107	i	0.91	-4	68	54	2.3
79	O=C(Nc1ccccc1C(=O)NCc1ccccc1)c1ccccc1	98	i	1.2	-2	10	109	-2.2
80	CCCCC(=O)N(CCOC)c1nnc(-c2ccc(OC)cc2)s1	44	i	0.83	4	-3	97	-1.2
81	CCOC(=O)C(C)Sc1nc(-c2cccs2)ccc1C#N (configuration not stated)	101	i	0.81	-8	nt	nt	-2.2
82	O=S(=O)(NC1c2cccc3cccc(c23)C1N1CCN(CCO)CC1)c1ccccc1 (configuration not stated)	107	i	0.96	-5	-27	74	1.0
83	O/N=C/c1ccc2ccccc2n1	102	i	0.85	nt	nt	nt	nt
84	CCNC(=O)COC(=O)c1cc(=O)[nH]c2ccccc12	101	i	0.96	-8	-17	126	-3.3
85	O=C(c1nc2ccc(Cl)cn2c1CNCC[C@@H]1C[C@@H]2C=C[C@H]1C2)N1CCCCCCC1	102	i	0.86	3	nt	nt	nt
86	CCOC(=O)N1CCC(Nc2cc(C)nc3c(-c4ccccc4OC)c(C)nn23)CC1	98	nt	nt	-2	-20	175	-0.8
87	COc1ccc(C2=NN(C(=O)CSc3ncccn3)C(c3ccc(OC)cc3)C2)cc1 (configuration not stated)	99	i	0.89	-2	nt	nt	0.5
88	O=C(c1ccc2c(c1)OCO2)N1CCN=C1SCc1ccccc1	105	i	0.79	-9	10	111	-0.1
89	O=C(CCN1C(=O)c2ccccc2C1=O)Nc1cccc(F)c1	104	i	0.93	1	-23	51	-0.8

# From PubChem
